Source: PubChem BioAssay
NPYLR7 agonist – agonists of mosquito NPYLR7 receptor, primary screen, cell-based, Aedes aegypti, calcium fluorescence, mosquito biting behavior; activation, % at 10 µM; actives 0.15% (n = 270,000); HEK293T NPYLR7/Galpha15, GCaMP6s calcium fluorescence; Aedes aegypti neuropeptide Y-like receptor 7 (NPYLR7); in the data active = activation above about 40%;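 also: 0% = vehicle and 100% = reference agonist at the receptor; some compounds past the cut are filed as inactive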
NPYLR7 agonist max-min – second read-out of NPYLR7 agonist, no call of its own (marks repeat the call); activation, %; measured here: Max-Min RFU normalised activation; some inactives read as strong as hits;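 span of the calcium signal over five minutes; 0% = vehicle and 100% = native peptide agonist; compound fluorescence can raise it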
An asterisk follows results filed as active; & = joins results of further samples. Only part of the results is shown (hit frequency here may not be typical).

SMILES	NPYLR7 agonist	NPYLR7 agonist max-min
CCCCc1nc(C(N)=O)c2[nH]c(=O)n(-c3ccccc3OCC)c2n1	10	2
Cc1ccc(S(=O)(=O)NC2CCN(c3ccccc3C(=O)N3CCN(C4CCCC4)CC3)CC2)cc1	1	6
Cc1cc([N+](=O)[O-])cc2sc(NC(=O)C3CCCCC3)nc12	-13	-21
Nc1cc(N2CCN(C3CCN(Cc4ccccc4)CC3)CC2)nc(N)n1	4	4
CC(C)c1nc(N2CCN(C(=O)c3cccc(C(F)(F)F)c3)CC2)c2c3c(sc2n1)CCCC3	-7	-2
N#Cc1c(F)cccc1N1CCN(c2ccccc2O)CC1	-6	-5
CCCCOc1ccc(OCCSc2nc3ccccc3n2CC(=O)O)cc1	-2	-8
O=C(CCCn1nc(-c2cccnc2)ccc1=O)Nc1nc2ccccc2s1	10	2
CCc1cc(-c2cccc(NC(C)=O)c2)nc(N2CCOCC2)n1	2	1
CCSc1nc(N2CCOCC2)c2cnn(CCNC(=O)Cc3cccs3)c2n1	-2	-5
CCOC(=O)C1(C/C=C/c2ccccc2)CCCN(C(=O)C(=O)c2ccco2)C1 (configuration not stated)	-4	-7
CCc1nc2c(OCc3ccc(OC(F)F)cc3)cccn2c1N(C)C(=O)c1ccco1	-15	-17
Cc1ccc(N2CCC(N3CCCC(C(=O)N4CCCC4)C3)CC2)nn1 (configuration not stated)	1	-10
CNC(=O)c1cncc(/C=C/C(=O)NCCOC2CCCCC2C)c1 (configuration not stated)	4	1
O=C(CCC(=O)N1CCC(N2CCCCC2)CC1)NC1CCCCCCC1	9	-2

Not a retest: an excerpt of the list.
SMILES	NPYLR7 agonist	NPYLR7 agonist max-min
Cc1ccc(N2CCC(N3CCCC(C(=O)N4CCCC4)C3)CC2)nn1 (configuration not stated)	1	-10
CNC(=O)c1cncc(/C=C/C(=O)NCCOC2CCCCC2C)c1 (configuration not stated)	4	1
O=C(CCC(=O)N1CCC(N2CCCCC2)CC1)NC1CCCCCCC1	9	-2

Going on with the list:
SMILES	NPYLR7 agonist	NPYLR7 agonist max-min
c1ccc2sc(Nc3nc4cc5c(cc4s3)OCO5)nc2c1	3	0
CC(C)OC(=O)C1=CN(C(=O)c2ccc(F)c(F)c2)CC(C)(C)c2c1[nH]c1ccccc21	3	-6
Cc1cnc(C(=O)NNc2ccnc3cc(Cl)ccc23)cn1	6	2
Cc1nc(-c2ccccc2)ncc1C(=O)N1CCCC2(CC1)CNC(=O)O2 (configuration not stated)	13	3
O=C(c1cccc(Cl)c1)N1CCN(c2cc(Oc3ccc(Cl)cc3)ncn2)CC1	-12	-2
COc1ccc(Cl)c(CN2CCCC(CNC(C)=O)C2)c1F (configuration not stated)	0	5
CC(C)c1cc(C(=O)NC2CCN(c3cccc(F)c3)CC2)n[nH]1	1	-1
COc1ccc(C2Nc3ccccc3N=C3CC(C)(C)CC(=O)C32)c(OC)c1OC (configuration not stated)	-1	-3
Cc1ccc2[nH]c(C(=O)NCC3(Cn4ccnc4C)CC3)c(C)c2c1	-3	1
Cc1nn(-c2ccccc2)c2nc3c(cc(C#N)c4cccc[n+]43)cc12	2	0
CN(CCCNC(=O)CCn1c(=O)oc2ccccc21)c1ccccc1	-6	-7
Cc1ncc2c(c1CNS(=O)(=O)c1ccsc1)CCN(C(=O)c1cccc(N(C)C)c1)C2	24	19
CN1CCN(CCCCNC(=O)N(C)C2CCC2)CC1	8	4
Cc1cc(C)c(C)c(S(=O)(=O)Nc2ccccn2)c1C	7	3
Cc1cccnc1C1=NOC(Cc2ccccc2)C(=O)N1Cc1ccncc1 (configuration not stated)	13	5
CC(C)=CC(=O)N1CCC(c2nc(-c3ccc(C)cc3)no2)CC1	-1	-2
c1ccc2oc(NCC(C3CCOC3)N3CCOCC3)nc2c1 (configuration not stated)	-2	-3
CN(CC(=O)Nc1cccc(F)c1)CC(=O)Nc1nc(-c2cc(F)ccc2F)cs1	2	1
COc1ccc(-c2cnc(-c3ccc(CNC(=O)c4c(Cl)cc(Cl)cc4Cl)cc3)[nH]2)cc1	-3	-5
O=C(c1ccc(N2CCCCC2)c([N+](=O)[O-])c1)N1CCc2ccccc21	3	-1
C=C(Br)CNC(=O)N1CCCN(C(=O)c2ccccc2Cl)CC1	4	2
c1ccc(CC2CCCCN2CC2CCOCO2)cc1 (configuration not stated)	6	4
O=[N+]([O-])c1cccc2nsnc12	11	11
OC12CCCCC1C1(O)CCCCC1C1(CCCCC1)O2 (configuration not stated)	10	6
Nc1nc(CCCNC(=O)c2ccccc2C2CCNC2)cs1 (configuration not stated)	3	4
COc1ccccc1N1CCN(c2ccc(NC(=O)Cc3ccccc3)cc2C(=O)N2CCC(C)CC2)CC1	-2	-8
CCOC(=O)c1sc(=NC(=O)c2ccc(C)cc2)n(C)c1C	0	3
Cc1ccc2cc(CCNC(=O)C3c4ccccc4Oc4ccccc43)c(=O)[nH]c2c1C	1	-3
Cc1ccc(C(C)C)c(OC(C)(C)C(=O)N2CC[C@H](O)[C@@H](O)C2)c1	4	3
COc1ccc(N2CCN(c3cc(C)nc(SCc4cccc(C(=O)NCCc5ccccn5)c4)n3)CC2)cc1	12	12
N#Cc1ccc(CSc2nnc(-c3ccccc3)o2)cc1	5	6
COc1ccc(CN2CCN(c3ncnc4c3cnn4-c3ccccc3)CC2)cc1F	8	9
CC(C)C(Cn1ccnc1)NCC(=O)Nc1ccc(Cl)cc1F (configuration not stated)	0	-3
CC(CNC(=O)CCC(=O)NC1CCCC1)c1ccc(Cl)cc1 (configuration not stated)	-4	-5
Cc1csc(SC(C(=O)NC2CC2)c2ccc(F)cc2)n1 (configuration not stated)	2	0
CCOc1ccccc1CNC(=O)c1ccc(-c2cc(-c3ccc(Cl)cc3)[nH]n2)cc1	-1	3
Cc1nccn1CCCCNC(=O)NC1CC1c1ccccc1F (configuration not stated)	4	4
O=C(CCN1C(=O)CSc2ccccc21)NCc1ccc(Cl)cc1	19	8
N#CCCN(c1nc2ccccc2s1)S(=O)(=O)c1ccccc1	3	4
CC(=O)Nc1ncc(C(=O)N2CCCC3(CN(C)C(=O)O3)C2)s1 (configuration not stated)	11	9
Cn1nc2c(cc1=O)CN(C(=O)c1ccc(O)c(Cl)c1)CC2	-1	11
CN(Cc1ccccc1)C1CCCN(Cc2cnn(C)c2)C1 (configuration not stated)	0	-2
CCOc1ccc(-c2nc3nc(C)cc(C)n3c2Nc2c(C)cccc2C)cc1	8&0	14&9
O=[N+]([O-])c1c(Cl)ncnc1N1CCCCC1	9	1
CC(C)(C)c1ccc(CC(=O)N2CCC2(C)C(=O)NS(=O)(=O)c2ccc(Cl)s2)cc1 (configuration not stated)	-1	-8
CO[C@H]1CN(C(=O)Cc2ccc(F)cc2)[C@H]2Cc3c([nH]c4ccccc34)[C@@H]1C2	-7	-1
Cc1ccc(CN(C)C(=O)c2ccc3cccnc3n2)o1	6	6
COc1ccc(CN(C)C(=O)COc2cccc(F)c2)c(OC)c1OC	3	-1
COc1cccc(CNC(=O)Cn2c3ccccc3c3ncn(Cc4ccccc4)c(=O)c32)c1	-1	-2
O=C(C1CCN(c2ccnc3ccc(Br)cc23)CC1)N1CCOCC1	-15	-16
Cc1ccccc1-n1cc(CN(C)C(=O)c2ccccc2C2CCNC2)cn1 (configuration not stated)	3	1
CCCCCN1N=C(c2ccccc2)Cn2c1nc1c2c(=O)n(C)c(=O)n1C	-8	-11
O=C(COCc1ccccc1)N1CCC(n2c(=O)oc3ccc(F)cc32)CC1	23	17
CC1(C)CC2C(C1)C(C)(O)C13CC1(COC3=O)C2O (configuration not stated)	-6	-15
COc1ccc(F)c(CN2CCN(CC=C(C)C)C(CCO)C2)c1 (configuration not stated)	13	3
Cc1ccc(C)c(NC(=O)C2(C)CCN2C(C)C)c1 (configuration not stated)	1	-2
O=C(c1csc2c1CCCC2)N1CCCCC1	-2	-6
C=C1OC(=O)OC1(C)CCC1=C(C)CCCC1(C)C (configuration not stated)	-3	-6
COc1ccc(NC(=O)N2CCN(CC(OCc3cccc(C)c3)c3ccc(Cl)cc3)CC2)cc1 (configuration not stated)	-3	10
CCc1c(C)sc(NC(=O)c2c(-c3c(Cl)cccc3Cl)noc2C)c1C#N	6	4
Other compounds:
SMILES	NPYLR7 agonist	NPYLR7 agonist max-min
O=C(NC(c1cccnc1)C(F)(F)F)c1nc(N2CCCC2)nc2c1CCCC2 (configuration not stated)	13	1
NC(=O)NC(=O)C=P(c1ccccc1)(c1ccccc1)c1ccccc1	8	9
CCn1c(CC2CCN(S(=O)(=O)Cc3ccccc3)CC2)nn(C)c1=O	9	4
COCc1cc(C)nc(OCC(=O)N/N=C\c2cc(Br)c(OCc3ccccc3)c(Br)c2)c1C#N	4	17
COc1cc(OC)cc(C(=O)Oc2c(S(=O)(=O)c3ccc(C)cc3)c(C)nn2C(C)(C)C)c1	1	10
N#CC(=Cc1ccc([N+](=O)[O-])cc1)S(=O)(=O)c1ccc(Cl)cc1	-5	-7
O=S1(=O)CC(O)C(Nc2ccccc2Cl)C1 (configuration not stated)	2	1
COc1ccc(-c2cc(C(=O)O)c3[nH]c(-c4ccccc4)nc3n2)c(OC)c1	2	0
CCc1cc(CN(C)C(=O)c2cn3c(n2)CNCC3)on1	2	-5
CCCCN(CC(=O)N(CCc1c[nH]c2ccccc12)Cc1ccccc1)C(=O)Nc1ccc(F)c(Cl)c1	18	15
CCOC(=O)Cc1csc(N=Cc2nc(-c3ccc([N+](=O)[O-])cc3)oc2O)n1	1	-6
COc1ccc(Cl)c2sc(N(Cc3ccccn3)C(=O)C3CCCC3)nc12	-4	-8
Cc1ccn2c(NC(=O)c3ccccc3C)c(-c3ccccc3)nc2c1	-5	-2
Cc1ccccc1N1C(=O)NC(=O)/C(=C\c2cc(C)n(-c3ccccc3F)c2C)C1=O	5	5
CCc1nc2n(n1)C(=O)C(C(c1ccc(C(C)C)cc1)N1CCOCC1)S2 (configuration not stated)	-3	-8
CN(CCCNC(=O)CCN1C(=O)CCNC1=S)c1ccccc1	-3	-11
Cc1ccccc1C(=O)Nc1c(C(=O)N2CCN(Cc3ccccc3)CC2)cnn1-c1ccccc1	-5	-6
Cc1ncsc1CCCn1cnnc1	0	-5
COC(=O)C1C(=O)C2=C(CC1C)NC(C)=C(C(=O)OC(C)C)C2c1ccc(C)o1 (configuration not stated)	2	0
O=C(CCCn1cncn1)N(Cc1ccco1)C1CCCC1	4	1
CC(C)(C)c1ccc(OCC(=O)Nc2ncn[nH]2)c(Br)c1	-1	-4
CCCCCCc1ccc(C(=O)N(CCOC)CC(=O)N(Cc2ccc3c(c2)OCO3)Cc2ccco2)cc1	-1	1
CCn1ccnc1CN1CCN(Cc2ccc(OC)c(C)c2)C(CCO)C1 (configuration not stated)	-5	-5
CCOC(=O)C1CCCN(C(=O)c2ccc(Nc3c(Oc4ccc(C)cc4)cnn(-c4ccc(Cl)c(Cl)c4)c3=O)cc2)C1 (configuration not stated)	15	20
COc1ccc(-c2noc(Cc3ccc(F)c(Br)c3)n2)cn1	11	4
C=CCN(Cc1ccccc1Cl)C(=O)c1ccc(CN(C)C)o1	6	5
Cc1nc(NC(=O)c2cc(Br)cn2C)sc1C	13	3
CC(C)C(C(=O)N1CCN(CC(C)(C)O)CC1)N1CCCC1=O (configuration not stated)	6	5
Cc1cccc(-n2ccnc2CN2CCN(Cc3ccsc3)C(CCO)C2)c1 (configuration not stated)	3	0
Cc1cc2nc(N(CCN(C)C)C(=O)c3ccc([N+](=O)[O-])cc3)sc2cc1C	0	-2

Ordered by molecular weight (descending): 4 of the compounds above.
SMILES	NPYLR7 agonist	NPYLR7 agonist max-min
Cc1ccccc1C(=O)Nc1c(C(=O)N2CCN(Cc3ccccc3)CC2)cnn1-c1ccccc1	-5	-6
COC(=O)C1C(=O)C2=C(CC1C)NC(C)=C(C(=O)OC(C)C)C2c1ccc(C)o1 (configuration not stated)	2	0
COc1ccc(-c2noc(Cc3ccc(F)c(Br)c3)n2)cn1	11	4
CN(CCCNC(=O)CCN1C(=O)CCNC1=S)c1ccccc1	-3	-11

(listing goes on)
SMILES	NPYLR7 agonist	NPYLR7 agonist max-min
COc1ccc2c(c1)C(C)(Cc1ccccc1C)C(=O)N2 (configuration not stated)	2	3
O=C(c1ccc(C(F)(F)F)nc1)N1CCOC(COc2ccc3c(c2)CCCC3)C1 (configuration not stated)	26	26
CC1CCc2sc(-c3nnc(SCc4nc(-c5cccs5)no4)o3)cc2C1 (configuration not stated)	5	8
COc1cc(NC(=O)N2CCN(c3nc(-c4cccc(C(F)(F)F)c4)nc(C)c3Cc3ccccc3)CC2)cc(OC)c1	-7	1
Cc1ccn2c(=O)c(C(=O)NC(C)CCc3ccccc3)c(O)nc2c1 (configuration not stated)	-1	26
Cc1csc(SCC(=O)NC2CCCN(C3Cc4ccccc4C3)C2)n1 (configuration not stated)	7	7
O=C(NC1CCCCC1)N1CCC(n2cc(CN3CC[C@@H](O)C3)nn2)CC1	18	9
COc1cccc(-c2nc(C=Nc3cc(Cl)ccc3C)c(O)o2)c1	-5	-9
CO[C@H](C(=O)N1CCN(CCn2cncn2)CC1)c1ccccc1	27	17
Cc1ccccc1NC(N)=Nc1nc(-c2ccccc2)cc(=O)[nH]1	2	31
O=C(c1ccco1)N1C2CCC(O)(CC2)C1CO (configuration not stated)	27	31
COc1ccccc1NC1CCN(CC2CCCCO2)CC1 (configuration not stated)	1	1

Profiles, looked up by structure:
O=C(NC1CCCCC1)N1CCC(n2cc(CN3CC[C@@H](O)C3)nn2)CC1 reads NPYLR7 agonist = 18; NPYLR7 agonist max-min = 9
COc1ccc2c(c1)C(C)(Cc1ccccc1C)C(=O)N2 (configuration not stated) reads NPYLR7 agonist = 2; NPYLR7 agonist max-min = 3
O=C(c1ccc(C(F)(F)F)nc1)N1CCOC(COc2ccc3c(c2)CCCC3)C1 (configuration not stated) reads NPYLR7 agonist = 26; NPYLR7 agonist max-min = 26
